From PubChem BioAssay
GIV Gai3 FP = GIV-Galpha-i interaction inhibition. P08753. Galpha-i3/FITC-GIV peptide fluorescence polarization, 90 min; hits give low values; scaled: aluminum fluoride 0%, vehicle 100%. percent of control (FP), % (no concentration beside the values). hit rate 0.42% among 210,000. AID 1224905;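 active = replicate mean at 85% of control or lower, very high polarization wells dropped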;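 also: wells of about 15 µL received 100 nL stock; the first replicate is given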
Target sequence (P08753 whole entry, looked up): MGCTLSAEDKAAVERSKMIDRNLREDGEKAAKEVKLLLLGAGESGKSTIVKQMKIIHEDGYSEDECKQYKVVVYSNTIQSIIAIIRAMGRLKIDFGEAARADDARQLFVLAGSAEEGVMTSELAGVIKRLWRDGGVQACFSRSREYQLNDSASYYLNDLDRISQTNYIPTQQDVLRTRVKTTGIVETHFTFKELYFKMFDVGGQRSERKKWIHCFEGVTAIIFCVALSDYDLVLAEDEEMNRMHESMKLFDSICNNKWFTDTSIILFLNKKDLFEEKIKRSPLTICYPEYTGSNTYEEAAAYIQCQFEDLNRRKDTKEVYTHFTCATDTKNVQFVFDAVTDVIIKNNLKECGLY
HCMV NEC inh = inhibitors of HCMV UL50-UL53 nuclear egress complex interaction | AID 1918969 | HTRF UL50-UL53 interaction, normalized percent inhibition | hit rate 0.15% among 190,000 | inhibition, % (no concentration beside the values);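 active = both replicates at 50% or more, plus weaker picks with an unusually low signal ratio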;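 also: stock transfer was 100 nL into about 20 µL; 0% = negative control wells and 100% = wells with untagged competitor protein; inactives centre near -12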
Sa growth inh = inhibitors of Staphylococcus aureus growth at 42 °C; S. aureus RN4220 growth, OD600, 20 h; hits give low values; AID 720641; relative growth, % (test concentration not listed); hit rate 0.53% among 170,000;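 active = growth at 42 °C up to 50% and 20 or more points under that at 30 °C, or under 10% at both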;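 also: 300 nL library stock went into each well; scaled to the means of positive and negative controls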
Sa growth inh second temp = also measured in Sa growth inh; calls as there; relative growth, %; measured here: growth at 30 °C;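 optical density after 20 h as mean of two plates; 100% = untreated growth and lower means inhibition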
An asterisk follows results filed as active; . = not tested or not shown; & = joins results of further samples.

SMILES | GIV Gai3 FP | HCMV NEC inh | Sa growth inh | Sa growth inh second temp
COc1ccc2c(c1)CCc1c(C(=O)Nc3c(C)nn(Cc4ccc(C)cc4)c3C)noc1-2 | 105 | -3 | 97 | 100
CCSc1nnc2c(n1)OC(c1ccc(N(CC)CC)cc1OC)N(C(C)=O)c1ccccc1-2 (configuration not stated) | 102 | -11 | . | .
Cn1ccnc1-c1nc2ccccc2n(CC(=O)O)c1=O | . | -51 | 84 | 64
CC(=O)N=C(NC(C)=O)c1ccc(N2CCOCC2)cc1 | . | -65 | 88 | 102
COc1ccccc1NC(=O)Cn1c(=O)n(-c2ccccc2Cl)c(=O)c2sc3ccccc3c21 | 104 | -40 | 104 | 89
CCCN(C(=O)c1cc2ccc3cccnc3c2[nH]1)c1ccc(F)cc1 | 98 | . | 97 | 94
COc1ccc(CCNC(=O)Cn2nc(-c3ccc(Cl)cc3)ccc2=O)cc1OC | 99 | . | 98 | 79
COc1ccc(C2CC(c3ccccc3)=NN2C(=O)COC(=O)c2ccco2)cc1 (configuration not stated) | . | -5 | 102 | 94
CCN1CCC(=NN2CCOCC2)CC1 | . | -8 | 92 | 93
CCOC(=O)Cc1c(C)nc(Cc2ccc(OC(C)C)cc2)[nH]c1=O | 103 | . | 103 | 97
CN(C)c1ccc(C(CNC(=O)c2ccc(Br)cc2)N2CCc3ccccc3C2)cc1 (configuration not stated) | 104 | 0 | . | .
Cc1c(C(=O)N2CCN(c3ccc([N+](=O)[O-])cc3)CC2)sc2ncnc(N3CCOCC3)c12 | 103 | -19 | . | .
COc1ccc(/C=C2\CC/C(=C\c3ccc(Cl)cc3)C2=O)cc1 | 99 | . | 92 | 96
CN(C)CCOC(=O)COc1ccc(Cl)cc1 | 97 | -15&-28&13 | . | .
O=C(CN1C(=O)CSc2ncccc21)NCCc1ccccc1 | 107 | . | 93 | 86
O=C(O)C1Sc2[nH]c(=O)sc2C2c3ccccc3OC(=O)C12 (configuration not stated) | 99 | -27 | 84 | 72
NS(=O)(=O)c1ccc(CCNC(=O)CSc2nc3ccc(Cl)cc3o2)cc1 | . | -26 | 99 | 89
O=C(C1CC1)N1CCN=C1SCc1ccc(C(F)(F)F)cc1 | 100 | -44 | 86 | 88
Cc1cc(/C=c2\sc3nc4ccccc4n3c2=O)c(C)n1-c1cccnc1 | 110 | -28 | 89 | 83
COc1ccc(/C=N/N2C(=O)c3ccc4c5c(ccc(c35)C2=O)CC4)cc1Br | 246 | . | 114 | 64
Cc1ccccc1C(=O)N1CCC(C(=O)OCc2ccccn2)CC1 | . | -10 | 90 | 98
Cn1c(=O)[nH]c(=O)c2c1nc1n2CCCN1c1ccc(S(N)(=O)=O)cc1 | 98 | -31 | . | .
Cc1cc(C(=O)N2CCN(c3ccc(F)cc3)CC2)on1 | 100 | -44 | . | .
CCOc1ccccc1N(CC(=O)Nc1ccc(S(=O)(=O)N2CCOCC2)cc1)S(=O)(=O)c1ccccc1 | 107 | -14 | . | .
COc1cccc(CNC(=O)Cc2c(C)c3c(cc(C)c4c(C)coc43)oc2=O)c1 | 105 | -35 | 102 | 91
O=S1(=O)C[C@H](N2CCc3ccccc3C2)[C@@H](S(=O)(=O)c2ccccc2)C1 | 99 | -3 | . | .
Cc1csc2nc(CNS(=O)(=O)c3ccccc3)cn12 | 103&101 | -7 | 90 | 86
Cc1ccc2[nH]c(CSc3nnc(COc4ccccc4C)n3C)cc(=O)c2c1 | 100 | . | 89 | 86
Cc1ccc(C(=O)Nc2cc(-c3nc4ncccc4o3)ccc2C)c(C)c1 | 106 | -33 | 98 | 82
CCN1CCN(C(=O)c2cnn(-c3cccc(C)c3)c2C2CCN(C(=O)OC(C)(C)C)CC2)CC1 | 106 | . | 87 | 93
Cc1ccc(NC(=O)Cn2c(=O)oc3cc(S(=O)(=O)N4CCCCC4)ccc32)c(Cl)c1 | 108 | -7 | 117 | 80
N#Cc1ccccc1CSc1nc2ccccc2c(=O)n1CCCC(=O)NCc1ccco1 | 112 | -8 | 89 | 87
CSC(=NC(C)C)NC#N | 103 | -28 | 95 | 89
CC1=NN(C(=O)CSc2nnc(-c3ccncc3)o2)C(C)(O)C1 (configuration not stated) | . | -18 | 101 | 92
O=S1(=O)CC(c2ccccc2)CS(=O)(=O)C1CCN1CCOCC1 (configuration not stated) | 107 | 46 | 116 | 94
Cc1ccccc1NC(=O)CS(=O)(=O)c1cccc2nsnc12 | 103 | . | 87 | 87
Cc1ccc2nc3c(cc2c1)CCN3C(=O)C(C)C | 109 | -16 | . | .
Cc1ccccc1NCc1ccccc1O | 98 | . | 106 | 91
COc1ccc(OC)c(CNC(=O)Cn2ncc3c([nH]c4ccc(C)cc43)c2=O)c1 | 105 | . | 77 | 96
CSc1c(CC(=O)NC(C)(C)CO)n(Cc2ccccc2)c2ccccc12 | 99 | 2 | 119 | 90

Compounds listed so far that contain four or more nitrogen atoms, in the order listed:
SMILES | GIV Gai3 FP | HCMV NEC inh | Sa growth inh | Sa growth inh second temp
COc1ccc2c(c1)CCc1c(C(=O)Nc3c(C)nn(Cc4ccc(C)cc4)c3C)noc1-2 | 105 | -3 | 97 | 100
CCSc1nnc2c(n1)OC(c1ccc(N(CC)CC)cc1OC)N(C(C)=O)c1ccccc1-2 (configuration not stated) | 102 | -11 | . | .
Cn1ccnc1-c1nc2ccccc2n(CC(=O)O)c1=O | . | -51 | 84 | 64
Cc1c(C(=O)N2CCN(c3ccc([N+](=O)[O-])cc3)CC2)sc2ncnc(N3CCOCC3)c12 | 103 | -19 | . | .
Cc1cc(/C=c2\sc3nc4ccccc4n3c2=O)c(C)n1-c1cccnc1 | 110 | -28 | 89 | 83
Cn1c(=O)[nH]c(=O)c2c1nc1n2CCCN1c1ccc(S(N)(=O)=O)cc1 | 98 | -31 | . | .
Cc1ccc2[nH]c(CSc3nnc(COc4ccccc4C)n3C)cc(=O)c2c1 | 100 | . | 89 | 86
CCN1CCN(C(=O)c2cnn(-c3cccc(C)c3)c2C2CCN(C(=O)OC(C)(C)C)CC2)CC1 | 106 | . | 87 | 93
N#Cc1ccccc1CSc1nc2ccccc2c(=O)n1CCCC(=O)NCc1ccco1 | 112 | -8 | 89 | 87
CC1=NN(C(=O)CSc2nnc(-c3ccncc3)o2)C(C)(O)C1 (configuration not stated) | . | -18 | 101 | 92
COc1ccc(OC)c(CNC(=O)Cn2ncc3c([nH]c4ccc(C)cc43)c2=O)c1 | 105 | . | 77 | 96

Next records.
SMILES | GIV Gai3 FP | HCMV NEC inh | Sa growth inh | Sa growth inh second temp
N#CCOC(=O)CCc1nc2ccccc2s1 | . | -19 | 71 | 87
Cc1cc(O)c2c(C)c(CC(=O)N3CCCCC3)c(=O)oc2c1 | 97 | -23 | 103 | 88
COC(=O)c1ccc(OCC(=O)Nc2ccccc2C(=O)NC2CC2)cc1 | . | 4 | 116 | 81
O=C(c1c[nH]c2ccccc2c1=O)N1CCCCC1 | . | -14 | 99 | 86
Cc1ccc(S(=O)(=O)n2nc(-c3cccnc3)nc2NCc2ccc(F)cc2)cc1 | 96 | -10 | . | .
O=C1Nc2nc(=O)nc3[nH]c(=O)nc(n23)N1 | 107 | -9 | 118 | 95
Clc1ccc(CN2CCN(/N=C/C=C/c3ccco3)CC2)cc1 | . | -18 | 91 | 86
O=C(CSc1nnc(-c2ccc3c(c2)OCO3)o1)N1N=C(c2cccs2)CC1c1ccco1 (configuration not stated) | . | -19 | 68 | 78
CN(C)CCNC(=O)c1cc(-c2ccc(F)cc2)nc2ccccc12 | . | -40 | 81 | 93
Cc1ccc(C)c(OCCCN2CCNCC2)c1 | . | 0 | 115 | 98
Cc1cc(Nc2ccccc2F)n2nc(-c3ccccc3)nc2n1 | 105 | -11 | 102 | 94
ClCC1CCCO1 (configuration not stated) | . | -13 | 84 | 79
COc1ccc2nc(NC(=O)c3cc4ccc5ccc(C)[nH]c5c4n3)sc2c1 | 101 | -7 | . | .
Cc1nc(SCc2ncc(-c3ccccc3)o2)c2ccccc2n1 | . | 5 | 123 | 92
CC(Sc1nnc(CC(=O)Nc2ccccc2F)n1C)C(=O)Nc1ccc2c(c1)OCO2 (configuration not stated) | 104 | 11 | 100 | 63
CCN(Cc1ccccc1)C(=O)CSc1nc2ccncc2[nH]1 | 98 | 8 | 107 | 95
Cc1ccc(CCNC(=O)Cn2ncc3c([nH]c4ccccc43)c2=O)cc1 | 102 | . | 96 | 93
Cc1noc(C)c1NC(=O)Nc1ccc(N(C)C)cc1 | 110 | 26 | 101 | 95
CSc1ncnc2c1ncn2CN1CCOCC1 | . | -44 | 111 | 76
O=C(Nc1ccncc1)c1cn(-c2ccccc2)nc1-c1cccs1 | . | -27 | 103 | 90
CCC(C)NC(=O)CCc1nc(-c2nn(-c3ccc(F)cc3)c(=O)n(C)c2=O)no1 (configuration not stated) | 107 | -124 | . | .
COc1ccccc1C(=O)Nc1ccc(C(=O)OCc2cc(=O)n3nc(C4CC4)sc3n2)cc1 | 103 | . | 78 | 90
Cc1ccc(NC(=O)N2CCN(C)c3ncccc32)cc1C | 97&98 | -34&-29 | 79 | 89
COc1ccc(-c2csc(N)n2)cc1F | . | -43 | 69 | 85
Cc1cc(C)c2c(n1)SCC(=O)N2CCCC(=O)NCc1ccccc1 | 103 | 1 | 105 | 91
CCOC(=O)c1cnc2ccccc2c1Nc1ccc(OC)cc1 | 106 | -22 | 25 | 22
CC(=O)N1c2ccccc2C(=O)OC1c1cccnc1 (configuration not stated) | 99 | -5 | 105 | 87
CCn1nc(C)c2c1c(=O)n(Cc1ccccc1)c(=O)n2CC(=O)Nc1ccsc1C(=O)OC | 103 | 4 | . | .
COc1ccc2[nH]c(=O)c(CN(C3CCCC3)S(=O)(=O)c3cccc4nsnc34)cc2c1 | 97 | -24 | 86 | 79
O=C(Nc1ccccc1)c1cc(Cl)ccc1O | . | -20 | 12 | 4
COc1ccc(-c2nc(C(=O)Nc3cccc(C(C)=O)c3)nn2-c2ccccc2Cl)cc1 | 102 | -19 | 111 | 83
COc1ccc(NC(=O)CCCSc2nc(-c3ccco3)cc(C(F)(F)F)n2)c(OC)c1 | 107 | -36 | 103 | 94
O=C(Cn1nc(-c2ccco2)ccc1=O)NCc1ccco1 | 99 | -74 | 99 | 92
Cc1c(NC(=O)NCCCN2CCOCC2)sc2nc3n(c(=O)c12)CCC(C)CC3 (configuration not stated) | 112 | 4 | 100 | 99
COc1ccc(C2CC(c3ccccc3)=NN2C(=O)c2cc(OC)c(OC)c(OC)c2)cc1 (configuration not stated) | 103 | -18 | . | .
COc1cc(CNc2ccc(C)cc2)ccc1O | 102 | -3 | 107 | 103
Cc1cc(-c2cc(S(=O)(=O)NCc3ccc(Cl)cc3)c(C)s2)on1 | 105 | -23 | . | .
COC(=O)c1cn(C)c(=O)c2ccccc12 | 101 | -16 | . | .
NS(=O)(=O)c1ccc(CCNC(=O)C2CCCC2)cc1 | . | -16 | 115 | 93
N#Cc1ccc(NC(=O)c2cc(=O)c3ccccc3o2)cc1 | . | -3 | 99 | 90
O=c1nc(SCc2ccccc2Cl)c2c(n1CCc1ccccc1)CCC2 | 104 | -20 | . | .
CCN(C(=O)C(NS(=O)(=O)c1ccc(Br)s1)c1ccccc1)c1ccc(C)c(C)c1 (configuration not stated) | 101 | -14 | 92 | 85
O=C(O)CCNc1ccccc1 | . | 8 | 95 | 95
CCCN(Cc1nnc(-c2ccccc2Cl)o1)C(=S)NC1CCCCC1 | . | -11 | 85 | 60
O=C1OC(c2ccccc2)=N/C1=C/c1ccc(F)cc1 | 101 | -8 | 105 | 90
CC(C)N1CC(=O)N(c2ccc(F)c(Cl)c2)C1=S | . | 4 | 98 | 83
O=c1[nH]c2c(=O)oc3ccccc3c2n(C2CCCCC2)c1=O | 103 | -52 | 110 | 90
Cc1c(C(=O)Oc2ccc(Br)cc2)sc2ncn(Cc3ccccc3F)c(=O)c12 | 102 | . | 127 | 88
COc1cc(N2C(=O)CSC2=S)cc(OC)c1OC | 107 | -15 | 104 | 98
O=C(NCc1ccco1)c1ccc(S(=O)(=O)NCC2CCCCC2)cc1 | 97 | 3 | 82 | 93
Cc1ccc(NC(=O)Cn2c(=O)n(Cc3ccco3)c(=O)c3sc4ccccc4c32)cc1C | 110 | 11 | 91 | 83
CCCNC(=O)c1cc2oc3ccccc3c2n1C | 103 | . | 129 | 71
CCc1ccccc1NC(=O)Cn1ccn(Cc2ccccc2)c(=O)c1=O | 106 | -8 | 105 | 78
Cc1ccc(-n2ncc3c(=O)n(-c4ccc(F)c(Cl)c4)c(-c4ccco4)nc32)cc1 | 105 | . | 86 | 90
COc1ccccc1NC(=O)CSc1nnc(N)s1 | 104 | . | 97 | 88
CCc1ccc2occ(CC(=O)Nc3c(C(=O)c4ccc(F)cc4)oc4ccccc34)c2c1 | 101&100 | -6&-20 | 109 | 88
CCCCCc1nn2cc(-c3cccc(OC)c3)nc2s1 | 103 | -12 | 93 | 81
N#C/C(N)=C(/C#N)N=Cc1c(F)cccc1Cl | 106 | -21 | 103 | 95
CC1CCCN(C(=O)Cn2ncc3c([nH]c4ccccc43)c2=O)C1 (configuration not stated) | 103 | . | 137 | 91
C=CCC1(/C=C/C)CCCCN1 (configuration not stated) | 101 | -28 | 95 | 84

Next entries follow:
SMILES | GIV Gai3 FP | HCMV NEC inh | Sa growth inh | Sa growth inh second temp
CCN(CC(=O)Nc1ccc2c(c1)OCCO2)C(=O)c1cc(Cl)ccc1O | . | -5 | 113 | 100
CC(C)(C)NC(=O)CSc1nnnn1C(C)(C)C | . | 7 | 95 | 86
CN1C(=O)c2cc3ccccc3n2CC1(C)C(=O)NCC(=O)NCc1ccccc1F (configuration not stated) | 99 | -20 | . | .
Cc1ccc(NC(=O)Nc2cn(CC(C)C)c(=O)c3ccccc23)cc1N(C)C | 96 | . | 102 | 90
